Screens deposited in PubChem BioAssay by several laboratories.
ALR H2O2 inh: inhibitors of human ALR sulfhydryl oxidase, primary screen, biochemical, H2O2 detection, HRP-luminol luminescence, single point. FAD-linked sulfhydryl oxidase ALR (Homo sapiens), P55789. purified ALR, DTT oxidation. inhibition, % (concentration not given with the values). actives 3.8% (n = 290,000);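 active = mean and each replicate at 75% or more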;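 note: stock transfer was 7.5 nL into about 7.5 µL; 0% = neutral wells and 100% = wells with inactivated enzyme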
B2AR ag: beta2AR agonists driving receptor internalization, primary screen, cell-based, FAP fluorogen, flow cytometry | Beta-2 adrenergic receptor (Homo sapiens), P07550 | Am2.2-beta2AR cells; reference of the scale not given here | response, % (test concentration not listed) | actives 0.43% (n = 340,000) | AID 504454, 2011;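 active = response above a set limit, near 3 SD of response in nonfluorescent compounds, cut at about 42% in these data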;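 note: stock transfer was 100 nL into about 11 µL; a reference agonist was the positive control; negative values mostly stem from fluorescent compounds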
Target sequence (P07550 whole entry, looked up): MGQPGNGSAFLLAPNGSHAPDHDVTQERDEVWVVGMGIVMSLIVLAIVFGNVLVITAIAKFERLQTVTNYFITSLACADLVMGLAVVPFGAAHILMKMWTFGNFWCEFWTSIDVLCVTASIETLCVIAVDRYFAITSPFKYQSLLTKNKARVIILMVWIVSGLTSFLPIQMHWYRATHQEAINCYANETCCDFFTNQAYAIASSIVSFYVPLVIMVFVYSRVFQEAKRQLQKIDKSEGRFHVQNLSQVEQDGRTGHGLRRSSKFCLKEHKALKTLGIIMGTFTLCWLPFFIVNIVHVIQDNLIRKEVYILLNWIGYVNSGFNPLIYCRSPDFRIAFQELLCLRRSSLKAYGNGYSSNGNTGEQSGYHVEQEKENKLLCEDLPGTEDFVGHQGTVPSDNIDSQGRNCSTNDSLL
rRNA inh HTS: reduced GFP signal of wild-type E. coli, primary screen, bacterial rRNA inhibitor project, GFP/RFP fluorescence, OD600, single point | GFP signal change (wild-type ribosome), % (concentration not given with the values) | AID 720706, 2013 | E. coli WT GFP vs humanized-ribosome RFP mutants, 24 h; stronger effect = lower value; DMSO median 0, no signal -100 | actives 1.6% (n = 350,000);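 active = significant combined selectivity score with lowered wild-type GFP, culture density cut under 30%, mutant RFP and density less affected; inactive = any of these conditions unmet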; note: one replicate is shown; some compounds called inactive have numbers as strong as hits
Ecoli growth: E. coli growth inhibition, primary screen, OD600; actives 0.21% (n = 330,000); Escherichia coli growth, 23 h; stronger effect = lower value; OD600 absorbance (concentration not given with the values); AID 1053175, 2014;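 active = OD600 absorbance below the run mean of sample wells minus 3.6 SD, in any replicate, cut at about 0.56 in these data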;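 note: stock transfer was 300 nL into about 60 µL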
UCH37 inh: inhibitors of human UCH37 deubiquitinase, primary screen, biochemical, Ub-AMC cleavage, fluorescence; actives 0.33% (n = 330,000); Ubiquitin carboxyl-terminal hydrolase isozyme L5 (Homo sapiens), Q9Y5K5; inhibition, % (concentration not given with the values); purified proteasome/UCH37;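 active = mean of two replicates above 20%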;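 note: 0% = compound-free wells with enzyme and 100% = wells lacking proteasome; stock transfer was 100 nL into about 20 µL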
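Material: human UCH37 enzyme supplied as purified proteasome complex / Amount: 0.15 nM proteasome as dispensed / Buffer or medium: pH 7.4 Tris-HCl (50 mM) with ovalbumin, ATP-MgCl2, DTT / Times: preincubation 30 min, reaction 25 min, room temperature / Technique: AMC fluorescence from Ub-AMC cleavage, excitation 355 nm, emission 460 nm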
HNF4A DNA FP: change in binding of human HNF4A to DNA, primary screen, biochemical, fluorescence polarization, FITC-DNA. 1 h. AID 1224865, 2016. Hepatocyte nuclear factor 4-alpha (Homo sapiens), P41235. activity change, % at 10 µM. actives 0.3% (n = 360,000); in the data active = activity change above about 30%, passing the limit was not always enough;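 note: controls were the assay level and a saturating level of protein; the project sought stronger binding though the title names inhibitors; some compounds called inactive have numbers as strong as hits; positive values seem to mean higher polarization but the record does not say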
Target sequence (P41235 whole entry, looked up): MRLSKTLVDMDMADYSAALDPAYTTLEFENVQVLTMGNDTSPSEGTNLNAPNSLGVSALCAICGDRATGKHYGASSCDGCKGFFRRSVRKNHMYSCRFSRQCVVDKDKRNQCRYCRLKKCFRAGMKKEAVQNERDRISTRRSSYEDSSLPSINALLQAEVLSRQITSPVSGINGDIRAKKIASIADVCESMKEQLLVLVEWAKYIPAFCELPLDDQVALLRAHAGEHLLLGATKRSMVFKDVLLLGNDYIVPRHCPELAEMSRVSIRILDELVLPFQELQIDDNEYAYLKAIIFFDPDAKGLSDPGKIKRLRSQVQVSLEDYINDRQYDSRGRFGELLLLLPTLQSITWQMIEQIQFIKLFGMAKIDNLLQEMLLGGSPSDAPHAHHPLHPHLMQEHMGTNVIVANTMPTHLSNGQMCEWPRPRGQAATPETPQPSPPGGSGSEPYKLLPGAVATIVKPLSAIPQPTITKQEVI
FGF22 binding: binders of human FGF22 protein, primary screen, FGF22 synaptogenesis inhibitor project, biophysical, thermal shift, single point; recombinant FGF22 thermal shift, SYPRO orange fluorescence; percent of sucrose octasulfate shift, DMSO zero; AID 651658, 2012; calls only at 9.99 µM; Fibroblast growth factor 22 (Homo sapiens), Q9HCT0; actives 1.5% (n = 340,000);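 active = melting point raised past a set limit in the mean and every replicate; three in four hits are not shown here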
Target sequence (Q9HCT0 whole entry, looked up): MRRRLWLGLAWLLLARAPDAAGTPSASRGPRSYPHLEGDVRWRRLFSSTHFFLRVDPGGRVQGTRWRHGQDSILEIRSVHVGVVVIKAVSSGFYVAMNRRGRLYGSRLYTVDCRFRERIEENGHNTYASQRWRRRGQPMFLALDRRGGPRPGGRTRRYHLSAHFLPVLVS
rRNA inh HTS OD600: recorded beside rRNA inh HTS, whose call it bears; OD600 change, %; measured here: OD600 growth;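 optical density of the mix in the first replicate; 0 = DMSO median and -100 = no signal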
rRNA inh HTS RFP: also measured in rRNA inh HTS; calls as there; RFP signal change, %; measured here: RFP humanized mutant strains;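 first replicate; 0 = DMSO median and -100 = no signal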
An asterisk follows results filed as active; i = inactive; . = not tested or not shown; & = joins results of further samples. This is a subset; rates above refer to the full screens.

SMILES	ALR H2O2 inh	B2AR ag	rRNA inh HTS	rRNA inh HTS OD600	rRNA inh HTS RFP	Ecoli growth	UCH37 inh	HNF4A DNA FP	FGF22 binding
COc1ccc(-c2csc(Nc3ncccc3C)n2)cc1	0.6	2.2	.	.	.	0.706	-0.4	-2.8	.
Cc1nc2ccc(C(=O)N/N=C/c3ccc(O)cc3)cc2[nH]1	99.0*	24.9	4.2	0.9	0.2	.	.	3.5	i
Cc1cc(S(=O)(=O)Nc2ccc3c(c2)COC3=O)ccc1F	-17.5	1.3	-1.3	-11.2	-2.7	0.681	2.7	-5.3	i
CCOC(=O)c1ccc(NC(=S)N(CCCN2CCCC(C)C2)Cc2cccs2)cc1 (stereo unspecified)	0.4	-1.1	-12.1	-9.8	0.4	0.694	0.1	-7.3	.
c1ccc(Nc2cccc(Nc3ccccc3)n2)cc1	98.7*	3.9	.	.	.	0.693	-23.9	4.0	.
Cc1nnc(SCC2=C(C(=O)O)N3C(=O)C(NC(=O)Cn4nc(C)c(Cl)c4C)C3SC2)s1 (stereo unspecified)	-10.4	-3.2	22.9	13.8	3.6	0.488*	2.1	-3.0	.
CC(C)NCc1nnc(-c2ccccc2Cl)o1	-18.2	11.0	2.2	8.1	-0.7	0.679	0.9	3.1	i
O=C(c1ccccc1)[C@@H]1[C@@H](C(=O)c2ccc(F)cc2)[C@@]2(C(=O)Nc3ccccc32)[C@H]2c3ccccc3C=CN12	-2.2	5.0	-11.3	-11.6	-3.3	.	.	-2.1	i
Cc1ccc(OCCOCCNC(C)C)c(Br)c1	-3.3	0.6	.	.	.	0.741	1.3	0.0	.
O=C(Nc1ccc(N2CCCC2)c(S(=O)(=O)Nc2cccc(C(F)(F)F)c2)c1)c1cccs1	-1.4	-1.3	.	.	.	0.703	-1.5	3.9	.
Clc1ccc2c(N3CCOCC3)ccnc2c1	-19.0	-6.5	4.3	5.8	-5.4	0.581	2.4	4.5	i
N#C/C(=N/O)c1nc(-c2ccc(F)cc2)cs1	98.0*	5.1	-40.7*	-29.4*	-12.1*	.	.	2.8	i
COc1ccc2nc(SCC(=O)NC3(C#N)CCCCC3)[nH]c2c1	6.6	9.6	1.1	-0.1	-3.0	0.685	0.4	-2.9	i
COc1ccc(C(=O)Nc2cc(C(C)=O)c(C)oc2=O)cc1	92.3*	0.8	8.5	13.8	2.5	0.656	2.3	0.6	i
CCCC(=O)N1CCN(c2nnc(-c3ccccc3)c3ccccc23)CC1	.	-13.8	-13.4	-21.6	-3.4	0.686	2.4	-3.1	i
COc1ccc(C(=O)Nc2ccccc2C(=O)O)cc1NC(=O)C(c1ccccc1)c1ccccc1	-6.8	5.7	-35.8*	-22.2*	5.1*	0.662	1.1	-1.8	i
Cc1cc(CNC(=O)Cc2ccccc2)c2ccccc2n1	.	12.5	16.8	0.7	2.0	0.695	2.5	0.6	i
O=C(OCC(=O)N1CCOCC1)c1cccc(S(=O)(=O)N2CCCc3ccccc32)c1	.	0.2	-17.8*	-4.8*	2.6*	0.719	2.4	-1.0	i
Cc1ccc(-n2ncc3c(NCc4ccc5c(c4)OCO5)ncnc32)c(C)c1	-1.3	-3.4	.	.	.	0.675	2.9	1.5	.
O=C(NCCCN1CCOCC1)c1cc2ccccc2oc1=O	-10.9	-6.6	.	.	.	0.734	-14.4	-1.5	.
Cc1ccc(CNC(=O)CCCn2nc(C)n3ccnc3c2=O)cc1	.	-11.6	0.4	7.3	-1.9	0.742	2.0	-2.1	i
CC(O)CNc1nc2c(c(=O)n(Cc3ccccc3)c(=O)n2C)n1C (stereo unspecified)	-19.3	0.1	4.4	13.1	0.9	0.683	2.7	-1.9	i
CCCCn1c(SCC(=O)NCc2ccc(OC)c(C(=O)O)c2)nc2cc(S(N)(=O)=O)ccc21	-7.8	-1.1	0.8	-6.6	1.1	0.674	1.4	-2.4	i
CCOC(=O)C(C(=O)c1ccccc1)C(c1ccccc1)c1nccc2ccccc12 (stereo unspecified)	.	.	13.4	8.5	1.0	.	.	2.0	i
COc1ccc(-n2nnnc2C(c2ccccc2)N2CCN(C/C=C/c3ccccc3)CC2)cc1 (stereo unspecified)	.	.	-30.8	-61.0	13.6	.	.	3.4	i

As entered above:
For Ecoli growth, COc1ccc(-c2csc(Nc3ncccc3C)n2)cc1 has 0.706
For Ecoli growth, Cc1ccc(CNC(=O)CCCn2nc(C)n3ccnc3c2=O)cc1 has 0.742

The listing picks up with the 2 entries that preceded the break.
SMILES	ALR H2O2 inh	B2AR ag	rRNA inh HTS	rRNA inh HTS OD600	rRNA inh HTS RFP	Ecoli growth	UCH37 inh	HNF4A DNA FP	FGF22 binding
CCOC(=O)C(C(=O)c1ccccc1)C(c1ccccc1)c1nccc2ccccc12 (stereo unspecified)	.	.	13.4	8.5	1.0	.	.	2.0	i
COc1ccc(-n2nnnc2C(c2ccccc2)N2CCN(C/C=C/c3ccccc3)CC2)cc1 (stereo unspecified)	.	.	-30.8	-61.0	13.6	.	.	3.4	i
CCC(C)COC(=O)C(C#N)c1nc2ccccc2nc1N1CCCCC1 (stereo unspecified)	-3.9	-4.7	.	.	.	0.723	-2.6	3.5	.
Cc1cc(C)n(-c2nc(-n3nc(C)cc3C)c3c4c(sc3n2)COC(C)(C)C4)n1	-0.6	.	.	.	.	0.714	-15.7	.	.
Cc1nc(C/C(=N\Nc2ccccc2)c2ccc(O)cc2O)cs1	53.6	-11.3	-12.6	9.5	6.7	.	.	-0.4	i
Cc1cccc(NC(=O)NCC(F)(F)F)n1	-1.9	1.4	.	.	.	0.716	3.6	5.3	.
O=C(NCO)c1cccnc1	.	3.4	.	.	.	.	.	3.6	i
O=C(CCCSc1nc2ccccc2s1)Nc1nccs1	.	-2.9	.	.	.	0.706	2.1	-0.4	.
COc1ccc(C)cc1NS(=O)(=O)c1ccc(-c2cnc(C3CC3)o2)cc1	-9.4	8.6	-11.3	-24.7	4.3	0.692	5.8	1.3	i
O=C(CN1C(=O)C(=O)N(Cc2ccccc2)C1=O)c1ccc[nH]1	.	2.7	11.6	11.2	1.5	0.661	1.6	6.1	i
CS(=O)(=O)N1c2cccc3cccc(c23)S1(=O)=O	-4.8	-1.2	1.6	3.0	-2.2	0.644	5.3	6.5	i
COc1ccc(Nc2nc(NCCO)nc(N3CCCC3)n2)cc1	.	-12.0	-16.1*	-0.1*	5.7*	0.673	2.9	0.3	i
Cc1ccc(-c2nnc(COc3cccc(-n4cnnn4)c3)o2)cc1	-36.6	-12.5	.	.	.	0.742	4.5	5.2	.
CN1CCN(CC(=O)C23CC4CC(CC(C4)C2)C3)CC1	-2.1	-0.4	.	.	.	0.711	4.4	3.2	.
CC1(C)OC(=O)C2=C(C[C@@H](C3CCCCC3)O[C@@H]2c2ccc(F)cc2)O1	.	.	-16.1	-36.7	-8.0	.	.	-5.7	i
OCCOCCn1c(C2CCCN2c2nc(-c3ccc(F)cc3)cs2)nc2cc(Cl)c(Cl)cc21 (stereo unspecified)	40.5	5.6	7.5	11.4	7.2	0.709	3.5	-0.8	i
O=C(NCc1ccco1)c1ccc2c(c1)N(Cc1ccc(Cl)cc1)CCS2	72.9	13.4	-17.1	-14.9	2.6	0.71	-178.7	-0.6	.
CC(=O)Nc1ccc(S(=O)(=O)NCCCN2CCN(Cc3ccccc3)CC2)cc1Cl	0.7	0.4	5.5	6.9	3.2	0.695	-3.3	-3.1	i
COc1ccc(C(=O)COc2ccc3c(C)cc(=O)oc3c2)cc1	-10.3	-12.5	1.9	-2.9	-3.4	0.699	-25.1	1.3	i
O=C(COC(=O)CNS(=O)(=O)c1c(Cl)cccc1Cl)Nc1cccnc1Cl	-10.5	-2.4	.	.	.	0.663	0.3	-0.9	.
COc1ccc(/C=N/NC(=O)CC(=O)N/N=C/c2ccc(OC)cc2)cc1	2.6	-0.8	13.9	1.4	0.6	.	.	0.3	i
COc1ccc(C2CCCCCN2C(=O)C2CCN(S(=O)(=O)c3cccc(C(C)=O)c3)CC2)cc1 (stereo unspecified)	.	4.1	-2.8	-16.1	-0.3	0.673	1.1	1.9	i
Cc1ccnc(NS(=O)(=O)c2ccc(NC(=O)c3ccc4c(c3)OCCO4)cc2)n1	10.0	6.3	-22.6*	-13.5*	-0.7*	0.679	4.9	-0.9	i
COCc1cc(=O)[nH]c(Nc2nc(C)c3cc(OC)ccc3n2)n1	-11.6	.	.	.	.	0.668	2.7	.	.
CC(=O)N1CCN(c2ccc([N+](=O)[O-])cc2)CC1	3.5	10.7	17.1	11.8	3.0	0.653	11.8	4.3	.
CCOc1ccc(S(=O)(=O)N(CC)CC)cc1NC(=O)CSCc1c(C)noc1C	-5.2	-8.8	-7.5	-12.6	5.2	.	.	-1.3	i
O=C1CCC([N+](=O)[O-])C(c2cc(Br)ccc2F)N1 (stereo unspecified)	2.2	-1.1	17.6	9.8	3.1	0.661	1.9	4.4	i
Next part.
SMILES	ALR H2O2 inh	B2AR ag	rRNA inh HTS	rRNA inh HTS OD600	rRNA inh HTS RFP	Ecoli growth	UCH37 inh	HNF4A DNA FP	FGF22 binding
CN(CCc1ccccc1)C(=O)c1ccc(NC(=O)Cc2ccc(NC(=O)C3CCCN(C(=O)C4CCCC4)C3)cc2)cc1 (stereo unspecified)	.	-13.4	-1.1	3.0	1.2	0.699	0.7	0.3	i
O=C(Cn1cnc(S(=O)(=O)N2CCCCC2)c1)NCc1ccco1	-10.7	-5.8	.	.	.	0.73	2.0	-1.6	.
O=C(CCOc1ccccc1)OCC(=O)c1cc2ccccc2o1	-2.4	7.3	.	.	.	0.722	0.1	6.9	.
CC(C)C(=O)NCCc1c[nH]c2ccccc12	32.6	1.9	.	.	.	0.683	1.2	2.6	.
CCOC(=O)c1c(N=CN(C)C)c(C#N)c2n1CCCC2	.	-5.8	.	.	.	0.688	0.5	-4.8	.
COc1ccc(NC(=O)CC2C(=O)N(C)C(=S)N2Cc2ccc3c(c2)OCO3)cc1 (stereo unspecified)	-5.4	6.2	.	.	.	0.706	1.4	2.5	.
Cc1noc(C)c1NC(=O)Nc1ccc2c(c1)C(=O)N([C@H](C)CO)C[C@H](C)[C@H](CN(C)C)O2	0.3	-3.4	1.7&12.6	3.4&18.6	0.3&1.4	.	1.1	0.7	i
CCCC[C@@H]1C[C@H]1[C@@H](NC(=O)c1ccccc1)c1ccccc1C(F)(F)F	.	2.9	-1.3	-0.5	-1.9	.	5.9	0.3	i
CCCNC(=O)Cn1c(=O)n(C)c2ccccc21	.	-2.6	6.9	9.9	-0.4	0.649	0.9	6.5	i
Fc1ccc(NC(=S)Nc2cccnc2)c(F)c1F	.	1.5	11.5	-1.0	1.2	0.615	4.3	-1.4	i
CC(C)c1csc(CN2CCC(n3nccc3NC(=O)Cc3ccccc3)CC2)n1	-0.3	-4.9	8.8	-0.8	3.1	0.722	4.1	2.6	i
CCC1Oc2ccc(C)cc2N(CC(=O)NCCCN2CCCC2)C1=O (stereo unspecified)	-22.3	0.4	5.8	5.3	6.7	0.63	1.8	0.3	i
CCOC(=O)c1sc(NC(=O)c2ccc(CC)s2)nc1C	-16.8	-4.4	.	.	.	0.741	-47.1	0.2	.
